Bioassay records as filed in PubChem BioAssay.
PV pol inh – inhibitors of poliovirus RNA polymerase binding and polymerization; poliovirus polymerase elongation, fluorescence polarization; hits give low values; % elongation, % (compound at 16.7 µg/mL); hit rate 0.66% among 150,000; AID 588519; in the data active = % elongation below about 90%; also: some results filed as inactive read as strong as hits
Target sequence (P03300 1749-2209 limits assumed): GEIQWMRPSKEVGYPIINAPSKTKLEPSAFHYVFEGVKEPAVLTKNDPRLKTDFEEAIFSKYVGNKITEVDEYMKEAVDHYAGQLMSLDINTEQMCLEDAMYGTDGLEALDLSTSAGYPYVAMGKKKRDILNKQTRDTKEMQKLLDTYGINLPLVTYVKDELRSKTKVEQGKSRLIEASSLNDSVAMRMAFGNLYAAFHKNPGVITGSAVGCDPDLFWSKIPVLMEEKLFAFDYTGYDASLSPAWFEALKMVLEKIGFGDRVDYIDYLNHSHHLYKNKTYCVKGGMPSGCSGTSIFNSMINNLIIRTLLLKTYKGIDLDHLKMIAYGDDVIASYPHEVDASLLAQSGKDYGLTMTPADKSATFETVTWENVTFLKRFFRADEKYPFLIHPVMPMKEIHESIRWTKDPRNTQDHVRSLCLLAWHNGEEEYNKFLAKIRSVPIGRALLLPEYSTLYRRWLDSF
PV pol inh intensity – also measured in PV pol inh; calls as there; % elongation; measured here: total intensity read-out; formula for this scale not given here;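 total fluorescence in place of polarization; lower means less elongation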
An asterisk follows results filed as active. A portion of the library, so the mix of outcomes need not match the whole.

A first look (six entries):
Order of results – PV pol inh intensity | PV pol inh
COCCCNC(=O)c1c(NC(=O)c2cc(=O)c3ccccc3o2)sc2c1CCCC2
  96 | 113
CCOc1cc(C2NC(=O)c3c(sc4c3CCN(C)C4)N2)ccc1OC(=O)c1ccc(Br)cc1 (stereo not given)
  108 | 105
Cc1ccc(CCNC(=O)c2c(C)nn(-c3ccc(F)cc3)c2-n2cccc2)cc1
  111 | 110
CN(C1CCCCC1)S(=O)(=O)c1ccc(C(=O)Nc2sc3c(c2C(N)=O)CC(C)(C)NC3(C)C)cc1
  113 | 105
CCOc1ccc(S(=O)(=O)NCCc2csc3nc(-c4cccc(C)c4)nn23)cc1
  105 | 112
COc1ccc(NC(=O)CCc2nc3cccnc3n2Cc2cccs2)c(OC)c1
  158 | 116

The list itself (from the top)
Order of results – PV pol inh intensity | PV pol inh
COCCCNC(=O)c1c(NC(=O)c2cc(=O)c3ccccc3o2)sc2c1CCCC2
  96 | 113
CCOc1cc(C2NC(=O)c3c(sc4c3CCN(C)C4)N2)ccc1OC(=O)c1ccc(Br)cc1 (stereo not given)
  108 | 105
Cc1ccc(CCNC(=O)c2c(C)nn(-c3ccc(F)cc3)c2-n2cccc2)cc1
  111 | 110
CN(C1CCCCC1)S(=O)(=O)c1ccc(C(=O)Nc2sc3c(c2C(N)=O)CC(C)(C)NC3(C)C)cc1
  113 | 105
CCOc1ccc(S(=O)(=O)NCCc2csc3nc(-c4cccc(C)c4)nn23)cc1
  105 | 112
COc1ccc(NC(=O)CCc2nc3cccnc3n2Cc2cccs2)c(OC)c1
  158 | 116
CCC(=O)Nc1cccc(-c2nc3cc(C)ccc3o2)c1
  107 | 108
CCOCCc1nn2c(=O)cc(COC(=O)COc3ccccc3Cl)nc2s1
  99 | 105
Cc1cc(C)cc(NC(=O)Nc2ccccc2OCc2cc(=O)n3ccccc3n2)c1
  112 | 106
CCCCNc1nc2c(c(=O)n(Cc3ccc(Cl)c(Cl)c3)c(=O)n2C)n1C
  118 | 115
CCN(C(=O)CN(C)S(=O)(=O)c1ccc2c(c1)n(C)c(=O)c(=O)n2C)c1cccc(C)c1
  96 | 98
CC(=O)c1cccc(NC(=O)c2nc(-c3ccccc3)n(-c3cccc(Cl)c3)n2)c1
  115 | 108
Cc1ccc(NS(=O)(=O)c2ccc3nc(-c4ccccc4)[nH]c3c2)c(Cl)c1
  113 | 112
CCOc1ccc(NS(=O)(=O)c2ccc3[nH]cc(C(=O)NCCc4ccccc4)c(=O)c3c2)cc1
  107 | 112
CCOc1ccccc1NC(=O)c1c(NC(=O)C(C)Oc2ccc(Cl)cc2)sc2c1CCCCC2 (stereo not given)
  109 | 104
O=C(CS(=O)(=O)c1cccc2nsnc12)Nc1ccccc1Cl
  111 | 110
COc1cccc(CNC(=O)CSc2ccc(-c3sc(-c4ccccc4)nc3C)nn2)c1
  109 | 108
COc1ccc2c(c1)c1c(c(=O)n(-c3ccccc3)c(=O)n1CC(=O)NCc1ccc(C)cc1)n2C
  109 | 106
CCC(=O)N1CCc2cc(Br)cc(S(=O)(=O)CCC(=O)Nc3ccc(C)c(C)c3)c21
  87 | 101
CCc1nn(CC(=O)NCCC(C)C)c(=O)c2cc3occc3n12
  108 | 103
Cc1ccc(-c2nc3cc(Cl)ccc3o2)cc1NC(=O)c1cc2ccccc2o1
  107 | 103
COc1ccccc1N1CCN(c2ccc(=O)n(CC(=O)O)n2)CC1
  109 | 110
COc1ccc(OC)c(CNC(=O)c2c3c(nc4ccccc24)C(=O)N(C2CCCCC2)C3)c1
  107 | 108
COc1ccc(/C=C/c2noc(-c3ccccc3O)n2)cc1OC
  100 | 104
Cn1cc(S(=O)(=O)N2CCCCC2)cc1C(=O)Nc1cccc(C#N)c1
  95 | 108
CCCCn1c(SCC(=O)NCc2ccc(C)cc2)nc2c(sc3ccccc32)c1=O
  114 | 107
COc1ccc(NC(=O)c2cnn(-c3ccc(C)cc3)c2-n2cccc2)cc1Cl
  116 | 109
O=C(NCCC1=CCCCC1)c1ccc2c(c1)ncn2-c1ccc(F)c(F)c1
  107 | 102
O=C(Cn1cc(S(=O)(=O)N2CCN(c3ccccc3F)CC2)c2ccccc2c1=O)Nc1cccc(C(F)(F)F)c1
  113 | 115
CCOC(=O)c1[nH]c(C)c(CCC(=O)Nc2ccc(N(CC)CC)cc2C)c1C
  110 | 110
Cc1ccc(NC(=O)CN2C(=O)CCSc3ccc(S(=O)(=O)N4CCCC4)cc32)cc1C
  116 | 106
Cc1ccc(Sc2ccc(N3CCCC(C(=O)Nc4ccc(Br)cc4)C3)nn2)cc1 (stereo not given)
  111 | 106
Cc1ccc2nc(Cl)c3cc(C(=O)NC4CCCCCC4)sc3c2c1
  100 | 103
COc1ccc(CNC(=O)Cn2c(-c3ccccc3)cc(C(C)=O)c2C)cc1OC
  109 | 104
CCCOc1ccc(C(=O)Nc2ccc3oc(-c4ccncc4)nc3c2)cc1
  113 | 106
FC(F)(F)c1cccc(N2CCN(c3nc4ccccc4n4cnnc34)CC2)c1
  119 | 109
CCN1CCOC(=O)C1CC(=O)Nc1cc(C)ccc1OC (stereo not given)
  95 | 100
CCOC(=O)c1c(C)oc2ncnc(N3CCN(c4ccccc4)CC3)c12
  108 | 104
Cc1ccc(-n2c(SCC(=O)Nc3ccc4c(c3)OCO4)nc3c([nH]c4ccccc43)c2=O)cc1
  102 | 106
Cc1cc(O)c(C(c2ccccc2Cl)N2CCN(c3ccccc3)CC2)c(=O)n1Cc1ccco1 (stereo not given)
  112 | 106
CCCOc1ccc(C(=O)N(Cc2ccco2)Cc2ccco2)cc1
  107 | 112
COc1ccc(S(=O)(=O)c2c(O)c3ccc(C(=O)NCc4ccc(F)cc4)cc3[nH]c2=O)cc1
  95 | 105
CCCCCn1cc2c(c1-c1ccccc1Br)c(=O)n(C)c(=O)n2C
  98 | 99
CCCCNC(=O)CCCn1c(=O)c2ccccc2n(Cc2c(C)cc(C)cc2C)c1=O
  104 | 104
CC(=O)Nc1nonc1-c1nnc(SCC(=O)Nc2ccccc2)n1-c1ccccc1
  110 | 110
Cc1ccc(-c2nc(CS(=O)CC(=O)N3CCN(c4cccc(Cl)c4)CC3)c(C)o2)cc1 (stereo not given)
  107 | 109
CCCc1ccc(OCC(=O)Nc2sc3c(c2C(=O)OCC)CCC(C(C)(C)C)C3)cc1 (stereo not given)
  106 | 102
Cc1ccc(-c2nnc(Nc3ccc(O)cc3)c3ccccc23)cc1S(=O)(=O)NC(C)(C)CO
  102 | 106
CCOc1ccc(NC(=O)c2cc(C)nc3c2c(C)nn3-c2ccc(C)cc2)cc1
  104 | 111
Cc1ccc(C)c(CNC(=O)CCn2cccn2)c1
  93 | 105
CCOC(=O)N1CCc2c(sc3c2C(=O)NC(c2ccc(C(=O)OC)cc2)N3)C1 (stereo not given)
  107 | 105
CCC(Sc1nnc(-c2ccc(F)cc2)c(-c2ccc(F)cc2)n1)C(=O)NC1CCCC1 (stereo not given)
  111 | 110
CCOc1ccc(CCNC(=O)CCCc2nnc3n(CCCOC)c(=O)c4sccc4n23)cc1
  116 | 123
Cc1cccc(N2CCN(S(=O)(=O)c3csc(C(N)=O)c3)CC2)c1C
  112 | 107
CCOC(=O)c1ccc(NC(=O)CSc2nc(C)c(Cc3ccccc3)c(=O)[nH]2)cc1
  103 | 103
COc1ccccc1-c1cc2nc(C)c(CCC(=O)NCCc3cccc(C)c3)c(C)n2n1
  110 | 107
COC(=O)c1cc(S(=O)(=O)NCC2CCN(Cc3ccccc3F)CC2)c[nH]1
  107 | 105
CC(C)(C)c1ccc(S(=O)(=O)N2CCC(c3ccncc3)CC2)cc1
  104 | 104
O=S(=O)(c1ccc(-c2cc(C(F)(F)F)on2)s1)N1CCN(c2ccc(F)cc2)CC1
  97 | 103
Cc1ccc(Cn2c(C(=O)O)c(CNCCc3ccco3)c3ccc(C)cc32)cc1
  112 | 107

(list continues)
Order of results – PV pol inh intensity | PV pol inh
COc1ccc(CCNC(=O)Cc2c(C)c3cc4c(C(C)(C)C)coc4c(C)c3oc2=O)cc1
  109 | 112
Cc1cc(C)cc(OCC(=O)Nc2nc3c(s2)CC(C(C)(C)C)CC3)c1 (stereo not given)
  104 | 108
O=C(Cn1c(=O)nc(-c2ccccc2)c2cc(Cl)ccc21)NCc1ccccc1
  107 | 110
CCCCc1ccc(NS(=O)(=O)c2ccc(N3CCCCS3(=O)=O)cc2)cc1
  106 | 109
COc1ccc(C(=O)/C=C/c2cn(CC(O)CN(CC(C)C)CC(C)C)c3ccccc23)cc1OC (stereo not given)
  127 | 120
Nc1nc(N)c(S(=O)(=O)c2ccccc2)c(Nc2ccccc2)n1
  110 | 108
COc1ccc(CNC(=O)C2CCC(CNS(=O)(=O)c3ccc4c(c3)CCCC(=O)N4)CC2)cc1 (stereo not given)
  115 | 107
CCOC(=O)C1=C(CS(=O)(=O)c2ccc(F)cc2)NC(=O)NC1c1ccc(OCC)c(OC)c1 (stereo not given)
  103 | 99
O=C(c1ccc(Nc2nc3ccccc3n3nnnc23)cc1)N1CCN(c2ccc(F)cc2)CC1
  108 | 107
COc1ccc(S(=O)(=O)c2cc3cc(OC)ccc3oc2=O)cc1
  104 | 103
Cc1cc(Cl)ccc1OCC(=O)Nc1c(C(=O)c2ccccc2)oc2ccccc12
  111 | 108
Cc1cccc(NC(=O)C2CCCN(S(=O)(=O)c3ccc4c(c3)oc(=O)n4C)C2)c1 (stereo not given)
  107 | 104
Cn1c(=O)n(C)c2cc(NS(=O)(=O)c3ccc(Br)cc3)c(NCc3ccccc3)cc21
  110 | 107
CC(C)OCCCNC(=O)C(=O)Nc1c2c(nn1-c1ccccc1)CS(=O)(=O)C2
  111 | 109
CCOC(=O)CSc1nc(-c2ccc(Cl)cc2)cc(C(F)(F)F)c1C#N
  109 | 107
Cc1ccc(Cl)cc1NC(=O)c1sc2nc(-c3ccccc3)cn2c1C
  110 | 108
Cc1ccc(NC(=O)Nc2csc3c2CCCC3)c(C)c1
  110 | 109
CCC(=O)N1CCc2cc(S(=O)(=O)NC(C(=O)NCCc3cccc(C)c3)C(C)C)ccc21 (stereo not given)
  103 | 101
COc1ccc(NC(=O)c2ccco2)cc1NC(=O)COc1ccccc1
  109 | 107
COc1ccc(Cn2ccnc2SCC(=O)NC2CCCC2)cc1
  113 | 109
COCCCNC(=O)C1CCN(C(=O)c2ccc(-n3ccc4ccccc43)s2)CC1
  109 | 112
CCCCS(=O)(=O)CC(O)CSc1nc(-c2ccc(C)cc2)cc(-c2ccccc2)c1C#N (stereo not given)
  82* | 81*
COc1ccc2c(c1)c1c(c(=O)n(-c3ccc(C)cc3)c(=O)n1CC(=O)NCc1ccc(C)cc1)n2C
  115 | 113
COc1ccccc1CNC(=O)C1CCN(C2=NS(=O)(=O)C(c3ccc(C)c(C)c3)=C2C)CC1
  105 | 100
O=C(NC1CCCCCC1)C1CCN(C(=O)N2CCOc3ccc(Cl)cc32)CC1
  109 | 108
COCCCNC(=O)c1ccc(-c2nc(CS(=O)(=O)c3ccc(C)cc3)c(C)o2)cc1
  112 | 107
COc1ccc(CNC(=O)CCS(=O)(=O)c2ccc3c(c2)CC(C)N3C(=O)C2CC2)cc1 (stereo not given)
  108 | 111
COc1cccc(NS(=O)(=O)c2ccc3[nH]c4c(c3c2)CCCCCC4)c1
  113 | 118
CCOC(=O)C1CCN(C(c2ccccc2OC)c2c(O)cc(C)n(CCOC)c2=O)CC1 (stereo not given)
  112 | 113
O=C(NCc1cccc(F)c1)C1CCN(c2nn3cc(-c4ccc(F)cc4)nc3s2)CC1
  111 | 108
COC(=O)c1ccc(C(=O)OC)c(NC(=O)CN(c2ccccc2)S(=O)(=O)N(C)C)c1
  101 | 100
COc1ccc(CNC(=O)c2cc3c(-c4ccc(Cl)cc4)nn(C)c3s2)cc1
  102 | 102
Cc1ccc(C)c(CN2C(=O)C(=O)c3ccccc32)c1
  115 | 111
CCOc1ccccc1Nc1sc(C(=O)c2ccccc2)c(N)c1S(=O)(=O)c1ccc(C)cc1
  113 | 110
O=C(NCc1ccc(F)cc1)c1ccc2oc(=O)n(Cc3ccccc3)c2c1
  116 | 114
CCOc1ccc(CNC(=O)Cn2c(=O)c3cccn3c3ccccc32)cc1
  106 | 102
COCCn1c(SCC(=O)c2c[nH]c3ccccc23)nc2cc(C(=O)NC(C)C)ccc2c1=O
  120 | 108
COc1cccc(N2CC(NC(=O)c3ccc(S(=O)(=O)N4CCCCC4)cc3)CC2=O)c1 (stereo not given)
  115 | 107
CCN(C(=O)CSc1nc2ccccc2n1CC(=O)N(C)C1CCCCC1)c1ccccc1
  95 | 96
CC1=C(C(=O)Nc2cccc(C(F)(F)F)c2)C2(CCN(C(C)C)CC2)OC1=O
  113 | 109
COc1ccc(NC(=O)Cn2cnc3ccc(S(=O)(=O)N4CCC(C)CC4)cc3c2=O)cc1Cl
  103 | 108
Cc1c(C(=O)NC(C)c2ccccc2)sc2ncnc(N(C)C3CCCCC3)c12 (stereo not given)
  115 | 110
Cn1ccc2cc(S(=O)(=O)N3CCCN(C(=O)Nc4ccc(Br)cc4)CC3)ccc21
  102 | 101

Part of the list above in order of count of non-hydrogen atoms, low to high.
Order of results – PV pol inh intensity | PV pol inh
COc1cccc(NS(=O)(=O)c2ccc3[nH]c4c(c3c2)CCCCCC4)c1
  113 | 118
CCOc1ccc(CNC(=O)Cn2c(=O)c3cccn3c3ccccc32)cc1
  106 | 102
Cc1c(C(=O)NC(C)c2ccccc2)sc2ncnc(N(C)C3CCCCC3)c12 (stereo not given)
  115 | 110
COc1cccc(N2CC(NC(=O)c3ccc(S(=O)(=O)N4CCCCC4)cc3)CC2=O)c1 (stereo not given)
  115 | 107
CCOC(=O)C1CCN(C(c2ccccc2OC)c2c(O)cc(C)n(CCOC)c2=O)CC1 (stereo not given)
  112 | 113
COc1ccccc1CNC(=O)C1CCN(C2=NS(=O)(=O)C(c3ccc(C)c(C)c3)=C2C)CC1
  105 | 100

Taken from above:
Cc1ccc(Cn2c(C(=O)O)c(CNCCc3ccco3)c3ccc(C)cc32)cc1 in PV pol inh: 107
CC(=O)Nc1nonc1-c1nnc(SCC(=O)Nc2ccccc2)n1-c1ccccc1 in PV pol inh intensity: 110
CC(C)(C)c1ccc(S(=O)(=O)N2CCC(c3ccncc3)CC2)cc1 in PV pol inh: 104
